Screening results deposited in PubChem BioAssay by several laboratories.
Mtb H37Rv – M. tuberculosis H37Rv growth inhibitors, H37Rv strain (AID 1626); inhibition, % at 10 µM; hits with a dose series show IC50 in µM; M. tuberculosis H37Rv growth inhibition; higher % means a stronger effect; 220,000 tested, 0.95% active;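 active = confirmed in a dose series; inconclusive = inhibition above 80% but not taken into the dose series; inactive = below 80% or under 30% at every dose of the series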;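 note: bacteria incubated seven days before Alamar blue readout; 0% = bacteria only wells and 100% = bacteria with antibiotic wells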
YopH PTP inh – blocks Yersinia enterocolitica YopH tyrosine phosphatase. inhibition, %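 (about 10 µM by stock and volumes)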. 140,000 tested, 0.16% active. fluorescence Ex485/Em525;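 active = inhibition of 50% or more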;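 note: controls were vehicle for no effect and minimum signal wells for full effect; inactives centre near -20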
Arbovirus inh – arbovirus infection inhibition; arbovirus infection cell-based antiviral screen; inhibition, % at 10 µM; 200,000 tested, 0.37% active; AID 1251;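 active = inhibition from about 30%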;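 note: bluetongue infection of BSR cells; cell survival read as ATP light after 72 h; 0% = infected wells without compound and 100% = uninfected wells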
Mtb betalactam – beta-lactam sensitization of Mtb H37Rv; AID 434955; inhibition, % at 25 µM; 330,000 tested, 0.27% active; M. tuberculosis H37Rv growth with meropenem, percent inhibition; hits of this screen are not shown here;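 active = about 74% or more and at least 40 points above the plate without the antibiotic, then above 30% in a dose series; inconclusive = first-round hits that could not be retested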;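 note: growth measured after seven days incubation then overnight dye step; 0% = bacteria only wells and 100% = bacteria with antibiotic; twin plates without the antibiotic show which effects depend on it; some results filed as inactive read as strong as hits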
RecA splice inh – inhibitors of M. tuberculosis RecA intein splicing. inhibition, %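 (about 9 µM by stock and volumes)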. cell-free RecA intein splicing, fluorescence. 290,000 tested, 0.75% active; in the data active = inhibition above about 30%; inconclusive = no clear call, values can overlap the other calls;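 note: 0% = vehicle wells and 100% = reference inhibitor control wells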
Target sequence (P9WHJ3 whole entry, looked up, canonical isoform): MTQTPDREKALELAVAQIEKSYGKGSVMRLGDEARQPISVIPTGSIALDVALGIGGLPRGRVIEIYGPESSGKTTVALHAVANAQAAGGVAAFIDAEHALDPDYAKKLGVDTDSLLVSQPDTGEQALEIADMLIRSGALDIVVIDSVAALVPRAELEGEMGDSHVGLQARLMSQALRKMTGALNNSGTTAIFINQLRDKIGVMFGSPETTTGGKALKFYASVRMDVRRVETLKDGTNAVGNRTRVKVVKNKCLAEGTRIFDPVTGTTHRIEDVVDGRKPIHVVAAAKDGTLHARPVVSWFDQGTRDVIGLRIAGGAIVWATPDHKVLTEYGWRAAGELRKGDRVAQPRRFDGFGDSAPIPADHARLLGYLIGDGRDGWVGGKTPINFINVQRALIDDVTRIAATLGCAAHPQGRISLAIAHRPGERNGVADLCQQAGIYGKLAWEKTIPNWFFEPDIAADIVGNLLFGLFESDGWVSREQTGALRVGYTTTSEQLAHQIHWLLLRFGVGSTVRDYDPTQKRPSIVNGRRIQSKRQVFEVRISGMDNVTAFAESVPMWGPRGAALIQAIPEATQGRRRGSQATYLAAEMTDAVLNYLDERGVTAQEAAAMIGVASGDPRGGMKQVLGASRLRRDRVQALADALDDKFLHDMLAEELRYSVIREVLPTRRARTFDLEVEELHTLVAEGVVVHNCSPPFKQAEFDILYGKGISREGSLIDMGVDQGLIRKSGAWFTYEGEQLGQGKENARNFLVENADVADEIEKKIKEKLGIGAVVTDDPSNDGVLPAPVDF
Arbovirus inh repeat – second read-out of Arbovirus inh, no call of its own (marks repeat the call); inhibition, %; measured here: 10K subset replicate screen; many hits read low in the repeat;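 first of two repeat runs on a subset; 0% = infected and 100% = uninfected wells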
Numbers without * were called inactive; ? = inconclusive; . = no result given. These rows are one share of the data; rates above refer to the full screens.

SMILES | Mtb H37Rv | YopH PTP inh | Arbovirus inh | Mtb betalactam | RecA splice inh | others
Nc1cc(OC(=O)c2cccs2)nn1S(=O)(=O)c1ccccc1 | -2.4% | -41.9 | -3.5 | 5.1 | 13.1
CCN1CCN(C2=C(NS(=O)(=O)c3ccc(Br)cc3)C(=O)c3ccccc3C2=O)CC1 | . | . | . | 6.1 | 0.6
O=C(CN1C(=O)NC2(CCSC2)C1=O)N1CCN(c2ccc(F)cc2)CC1 (configuration not stated) | -2.6% | -30.2 | . | 66.8 | -2.6
O=C(COC(=O)c1cc([N+](=O)[O-])ccc1N1CCOCC1)Nc1ccccc1OC(F)F | . | . | . | -4.5 | -3.1
COc1cc(NC(=O)c2cc(C)no2)cc(OC)c1OC | . | . | . | -6.7 | -2.4
COc1ccc(C2=NS(=O)(=O)N(C)C(C(=O)NC3CCCCC3)=C2)cc1 | . | . | . | -0.8 | -0.8
CCOc1ccc(NC(=O)NCc2ccco2)cc1 | 3.1% | . | -0.8 | 7.3 | 1.3
O=S(=O)(Cc1ccccc1)Nc1ccc(S(=O)(=O)NCC2CCCO2)cc1 (configuration not stated) | 4.3% | 12.2 | 4.1 | -1.4 | 0.6
Cc1ccc(N2C(=O)c3ccccc3C2Nc2ccc(S(=O)(=O)N3CCOCC3)cc2)nc1 (configuration not stated) | 10.0% | -41.5 | -1.3 | 5.1 | -3.6
COc1ccc(NC(=O)CSc2nc3c(c(=O)n2-c2ccccc2OC)SCC3)cc1 | 3.2% | -34.0 | 1.4 | 1.0 | 2.6 | Arbovirus inh repeat=6.1
COc1cccc(C(=O)Nc2ccc(N3CCN(S(C)(=O)=O)CC3)cc2)c1 | -9.7% | -17.8 | -6.1 | 6.3 | 1.8
Cc1cccc(C(=O)NC2CC3CCCC(C2)N3Cc2ccccc2)c1 (configuration not stated) | . | . | . | -7.2 | -1.1
CCn1c(=O)c(CCC(=O)NCCN2CCOCC2)c(C)c2c(C)nn(-c3cccc(C)c3)c21 | . | . | . | 21.7 | -1.8
Cc1cc(C)nc(SC(C)CNS(=O)(=O)c2ccccc2)n1 (configuration not stated) | 1.1% | . | 8.3 | 12.8 | 2.9
CCNC(=O)CN(CCc1ccccc1)S(=O)(=O)c1ccc(OC)cc1 | 1.3% | -22.3 | 6.6 | -4.4 | 1.6
CCCCNC(=O)NNC(=O)c1ccoc1C | 1.2% | -24.0 | 2.2 | -4.9 | 1.8
CCOC(=O)CCCSc1nc2sc3c(c2c(=O)[nH]1)CCC3 | -8.0% | -6.0 | 3.2 | 1.4 | 0.8
COc1ccc(C)cc1-n1nnnc1SCc1nc2ccccc2c(=O)[nH]1 | 5.5% | . | -2.2 | 0.2 | -1.3
CN(c1ccc(Br)cc1)S(=O)(=O)c1ccc2[nH]cc(C(=O)NCCN3CCOCC3)c(=O)c2c1 | . | . | . | -7.4 | 4.4
COc1ccc(NC(C)=O)cc1S(=O)(=O)Nc1ccccc1C(=O)NCCc1ccccc1 | . | . | . | 0.2 | 1.3
Cc1ccc(N2C(=O)C3C4C=CC(CNC(=S)Nc5ccc(F)cc5)(O4)C3C2=O)cc1 (configuration not stated) | -5.9% | -6.3 | 9.8 | 5.5 | -0.6
CN(C)S(=O)(=O)c1cc(NC(=O)c2cc(=O)c3ccccc3o2)ccc1Cl | . | . | . | 11.9 | -0.5
Cc1ccn(C(=O)c2ccc(NC(=O)C3CCCCC3)cc2)n1 | 9.0% | -19.7 | 4.1 | 91.2 | 11.6
COc1c(Cl)cnn(-c2ccccc2)c1=O | -0.7% | -46.1 | 2.8 | 6.9 | 0.6
CN(C)S(=O)(=O)N1CCN(CC(=O)Nc2ccc(Br)cc2)CC1 | . | . | . | 0.9 | -3.6
CCN(C(=O)Cc1cccs1)c1nnc(-c2cc(OC)c(OC)c(OC)c2)s1 | 2.1% | -4.5 | -6.8 | -8.0 | -2.3
O=C(CSc1nc2ccccc2[nH]1)N1CCCCC1 | -1.2% | -30.3 | 4.7 | . | -1.0
COc1ccc(NC(=O)Cn2c(=O)n(CC(=O)NCc3ccco3)c(=O)c3ccccc32)cc1 | -15.7% | -24.5 | -1.9 | 1.3 | -1.6
CSc1nc(N)nc(-c2cccs2)c1C#N | 1.4% | -10.0 | -13.8 | 9.7 | 0.7
Cc1ccc(F)cc1NCC(=O)Nc1ccc(Cl)cc1F | -3.4% | -15.5 | 8.8 | -0.1 | 4.1
Cc1ccc(N(Cc2ccco2)C(=O)c2cccc(S(=O)(=O)N(C)C)c2)cc1 | -3.3% | -25.6 | -3.8 | -15.0 | 0.7
O=c1[nH]cnc2c1sc1nc3c(c(-c4ccc(Cl)cc4)c12)CCC3 | 9.8% | -21.9 | -0.4 | 0.3 | 5.0
COc1ccccc1CNC(=O)CSc1ncc(C(=O)Nc2ccccc2)c(=O)n1C | . | . | . | -0.9 | 1.6
COC(=O)[C@H](CCSC)NC(=O)c1cc2c(cn1)[nH]c1ccccc12 | . | . | . | 90.8 | -0.1
COc1ccc(Oc2nnc(-c3ccccc3)cc2C#N)cc1 | 0.1% | -20.9 | -5.5 | 0.1 | -0.5
COc1ccc(-n2nc(C)c3onc(C)c3c2=O)cc1 | -0.3% | . | . | 1.2 | 1.1
O=S(=O)(c1cccc(F)c1)N1CCN(c2ncnc3scc(-c4ccc(F)cc4)c23)CC1 | . | . | . | -9.9 | -6.2
CCOc1ccc(N(CC(=O)Nc2cccc(OC)c2)S(=O)(=O)c2c(C)noc2C)cc1 | 3.5% | -18.6 | -4.0 | -6.2 | -0.2 | Arbovirus inh repeat=-7.6
COC(=O)c1ccc(OCc2cc(=O)n3ccsc3n2)cc1 | -5.7% | -25.3 | 3.3 | -13.1 | 0.7
O=C(c1ccco1)N1CCN(c2nc(-c3ccc(F)cc3)cs2)CC1 | 5.0% | 4.2 | 30.8* | -7.0 | 1.6
COc1ccc(N(C(=O)CNC(=O)c2ccco2)C(C(=O)NCC2CCCO2)c2ccccc2)cc1OC (configuration not stated) | . | . | . | 0.5 | 3.1
O=C1CC(N2CCN(C/C=C/c3ccccc3)CC2)C(=O)N1Cc1cccs1 (configuration not stated) | 2.2% | 3.5 | 8.2 | -8.4 | 1.8
Cc1ccc2nc3c(nc2c1C)CCCC3 | . | . | . | -4.3 | 0.5
CCN(C(=O)c1cc(Cl)ccc1OC)c1ccccc1 | -1.7% | -31.4 | 3.1 | -11.3 | -2.1 | Arbovirus inh repeat=0.7
Cc1ccccc1CNC(=O)C(=O)NCC1OCCCN1S(=O)(=O)c1cccs1 (configuration not stated) | . | . | . | -5.3 | -6.5
CCC(=O)N(Cc1ccco1)Cc1cc2cccc(C)c2n2nnnc12 | -3.3% | . | 4.4 | 4.7 | 0.5
CCN1CCN(CCOc2ccc(Cl)cc2)CC1 | -5.6% | . | -8.2 | -4.0 | -1.2
CCOc1ccccc1CNc1ccc(O)cc1 | -6.9% | . | -1.7 | . | 81.6*
O=[N+]([O-])C(=c1ccc2c(c1)N1C3=C(CCCC3)CC3CCCCC31N=2)[N+](=O)[O-] (configuration not stated) | -8.6% | . | . | 100.5 | 3.5
CC(=O)Nc1ccc(S(=O)(=O)N(C)CC(=O)OC(C)C(=O)N(C)C2CCCCC2)cc1 (configuration not stated) | . | . | . | -10.2 | 0.4
CN(C)c1ccc(CNC(=O)CCS(=O)(=O)c2ccc3c(c2)oc(=O)n3C)cc1 | . | . | . | -4.0 | -5.8
Cc1ccc(/C=N/NC(=O)Cn2nc(C)c(Br)c2C)o1 | -5.1% | -18.3 | -0.4 | 13.8 | -1.5
CC(=O)Nc1cccc(OCC(=O)NC(C)c2ccc3ccccc3c2)c1 (configuration not stated) | . | . | . | 0.8 | 1.2
[O-]/C(=C(\C(=S)Nc1ccc(SC(F)F)cc1)[n+]1ccccc1)c1ccc(Cl)cc1Cl | -4.6% | . | 27.7 | -8.1 | 0.3
COc1ccc(N2CCN(CCCNC(=O)CN3CCN(Cc4ccccc4C)C3=O)CC2)cc1 | -0.9% | -32.3 | -9.4 | -9.6 | -4.2
CC1CCCCC1NC(=O)CSc1nnc(COc2ccccc2Cl)o1 (configuration not stated) | -2.1% | -35.5 | -1.8 | -8.5 | -0.8
Cc1oc(-c2ccccc2)nc1CS(=O)CC(=O)NC1CCCC1 (configuration not stated) | . | . | . | 0.8 | -1.4
COc1ccc(C(=O)NC2CCSc3ccccc32)cc1 (configuration not stated) | . | . | . | ? | 3.0
CCOC(=O)C1CCCN(CCC(=O)Nc2cc(C)cc(C)c2)C1 (configuration not stated) | 2.8% | . | -3.4 | 1.1 | -1.2
COc1ccccc1C(OC(=O)c1ccco1)C(=O)NC(C)(C)C (configuration not stated) | -5.5% | -47.7 | -4.3 | -0.8 | .

Some of these compounds in order of SMILES length, falling:
SMILES | Mtb H37Rv | YopH PTP inh | Arbovirus inh | Mtb betalactam | RecA splice inh | others
CN(c1ccc(Br)cc1)S(=O)(=O)c1ccc2[nH]cc(C(=O)NCCN3CCOCC3)c(=O)c2c1 | . | . | . | -7.4 | 4.4
COc1ccc(N(C(=O)CNC(=O)c2ccco2)C(C(=O)NCC2CCCO2)c2ccccc2)cc1OC (configuration not stated) | . | . | . | 0.5 | 3.1
COc1ccc(NC(=O)Cn2c(=O)n(CC(=O)NCc3ccco3)c(=O)c3ccccc32)cc1 | -15.7% | -24.5 | -1.9 | 1.3 | -1.6
O=C(COC(=O)c1cc([N+](=O)[O-])ccc1N1CCOCC1)Nc1ccccc1OC(F)F | . | . | . | -4.5 | -3.1
CN(C)c1ccc(CNC(=O)CCS(=O)(=O)c2ccc3c(c2)oc(=O)n3C)cc1 | . | . | . | -4.0 | -5.8
COc1ccc(NC(=O)CSc2nc3c(c(=O)n2-c2ccccc2OC)SCC3)cc1 | 3.2% | -34.0 | 1.4 | 1.0 | 2.6 | Arbovirus inh repeat=6.1
COc1ccc(C)cc1-n1nnnc1SCc1nc2ccccc2c(=O)[nH]1 | 5.5% | . | -2.2 | 0.2 | -1.3
CCNC(=O)CN(CCc1ccccc1)S(=O)(=O)c1ccc(OC)cc1 | 1.3% | -22.3 | 6.6 | -4.4 | 1.6
CCC(=O)N(Cc1ccco1)Cc1cc2cccc(C)c2n2nnnc12 | -3.3% | . | 4.4 | 4.7 | 0.5
COc1ccc(Oc2nnc(-c3ccccc3)cc2C#N)cc1 | 0.1% | -20.9 | -5.5 | 0.1 | -0.5
COc1ccc(-n2nc(C)c3onc(C)c3c2=O)cc1 | -0.3% | . | . | 1.2 | 1.1
CCN(C(=O)c1cc(Cl)ccc1OC)c1ccccc1 | -1.7% | -31.4 | 3.1 | -11.3 | -2.1 | Arbovirus inh repeat=0.7
O=C(CSc1nc2ccccc2[nH]1)N1CCCCC1 | -1.2% | -30.3 | 4.7 | . | -1.0
CSc1nc(N)nc(-c2cccs2)c1C#N | 1.4% | -10.0 | -13.8 | 9.7 | 0.7
Cc1ccc2nc3c(nc2c1C)CCCC3 | . | . | . | -4.3 | 0.5

(list continues)
SMILES | Mtb H37Rv | YopH PTP inh | Arbovirus inh | Mtb betalactam | RecA splice inh | others
COc1ccc(C(=O)NC(CO)c2nnc(SCc3ccc(Cl)c(Cl)c3)n2C)cc1 (configuration not stated) | -3.6% | -21.1 | -2.6 | 2.2 | -0.7
CS(=O)(=O)Nc1ccc2c(c1)ncn2CCc1ccccc1 | . | . | . | -5.9 | -0.9
CSc1ncccc1C(=O)Nc1nccs1 | . | . | . | 0.4 | 1.2
COc1ccc(Cc2c(O)[nH]c(=O)[nH]c2=O)c(OC)c1 | -3.8% | . | . | -7.5 | -1.5
OCCNCc1cc(Br)ccc1OCc1ccccc1Cl | 13.3% | -19.2 | -11.2 | -0.1 | 0.5
Cc1cc(NC(=O)c2cccs2)n(-c2ccccc2)n1 | -14.7% | -28.4 | 7.4 | 11.5 | -0.3
O=C(COC(=O)c1cc(Cl)ccc1O)NCC1CCCO1 (configuration not stated) | . | . | . | -4.1 | -0.4
O=C(Nc1ccnn1C1CCN(Cc2cccc(F)c2F)CC1)C1CCCC1 | . | . | . | -2.1 | 1.5
COc1ccc(/C=C/C(=O)NC(=S)Nc2ccc(S(N)(=O)=O)cc2)cc1 | 7.4% | . | . | 4.3 | -1.9
O=C(N/N=C(\CC(=O)c1cccs1)C(F)(F)F)c1ccncc1 | ? | . | . | 97.1 | .
O=C(NN=C1CCCC1)c1ccc(O)cc1O | . | . | . | -1.6 | -0.2
CNC(=O)c1cc2c(cn1)[nH]c1ccccc12 | -8.2% | . | . | 3.6 | 1.7
COc1ccc(C(=O)CN2C(=O)C(C)(C)Oc3ccc(C(=O)N4CCCCCC4)cc32)cc1 | 8.2% | -17.4 | 1.6 | 1.8 | 1.0
